KCNQ2 block = KCNQ2 potassium channel inhibitors, primary screen, cell-based, CHO-K1, FluxOR thallium flux, B-score (AID 2156) | Potassium voltage-gated channel subfamily KQT member 2 (Rattus norvegicus), O88943 | 20 min; stronger effect = lower value; only compounds with negative scores are shown here; some inactives read as strong as hits | B-score at 10 µM | 310,000 tested, 1.1% active;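 active = fluorescence ratio B-score at most minus 3 library SDs, with starting brightness B-score within 2 library SDs, cut at about -5.5 in these data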
Target sequence (O88943 whole entry, looked up): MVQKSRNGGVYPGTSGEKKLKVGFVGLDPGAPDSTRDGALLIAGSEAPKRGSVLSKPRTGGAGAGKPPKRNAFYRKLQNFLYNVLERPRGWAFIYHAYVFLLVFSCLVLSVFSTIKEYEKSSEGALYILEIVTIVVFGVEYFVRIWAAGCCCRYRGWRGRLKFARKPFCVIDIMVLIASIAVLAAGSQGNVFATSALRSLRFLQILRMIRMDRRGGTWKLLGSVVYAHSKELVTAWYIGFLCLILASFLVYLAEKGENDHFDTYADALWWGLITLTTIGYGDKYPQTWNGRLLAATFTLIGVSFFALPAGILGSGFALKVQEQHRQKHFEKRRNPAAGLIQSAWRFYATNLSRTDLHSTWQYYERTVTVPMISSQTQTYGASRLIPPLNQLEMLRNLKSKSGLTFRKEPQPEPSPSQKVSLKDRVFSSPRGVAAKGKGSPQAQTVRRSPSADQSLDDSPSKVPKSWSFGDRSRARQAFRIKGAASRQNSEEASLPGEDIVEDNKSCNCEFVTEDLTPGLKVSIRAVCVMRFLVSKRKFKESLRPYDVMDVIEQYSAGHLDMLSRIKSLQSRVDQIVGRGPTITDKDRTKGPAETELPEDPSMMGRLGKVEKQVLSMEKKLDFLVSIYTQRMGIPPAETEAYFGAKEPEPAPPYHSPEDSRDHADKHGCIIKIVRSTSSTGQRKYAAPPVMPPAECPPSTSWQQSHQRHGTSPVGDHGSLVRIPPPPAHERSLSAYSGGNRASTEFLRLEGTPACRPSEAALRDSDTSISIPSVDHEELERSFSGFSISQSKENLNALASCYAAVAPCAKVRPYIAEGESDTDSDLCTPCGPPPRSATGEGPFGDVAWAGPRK
KCNQ2 block baseline = recorded beside KCNQ2 block, whose call it bears; B-score; measured here: initial fluorescence intensity artifact check;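 brightness before thallium and not channel activity; 0 = typical well and far values either way flag optical interference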
* hit, by the source's call; i = inactive.

KCNQ2 block | KCNQ2 block baseline | Molecule
i | 0.17 | CC(=O)c1c(C(C)=O)c(C)n(-c2ccc(N)c(C)c2)c1C
i | 0.34 | COc1ccc(S(=O)(=O)N2CCCCCC2)cc1C(=O)Nc1cccc(C)n1
i | 19 | CCc1ccc(/C=C2\Oc3c(ccc(O)c3CN3CCN(C)CC3)C2=O)cc1
i | -0.03 | CC(C)Cc1ccc(S(=O)(=O)N2CCN(C(=O)c3ccco3)CC2)cc1
i | -1.2 | CCC(=NC1CC(C)(C)NC(C)(C)C1)C1=C(O)CC(C)(C)CC1=O
i | 0.41 | O=C(CSc1nc2ccccc2[nH]1)NCc1ccco1
i | 0.49 | CCOC(=O)C1=C(N)n2c(s/c(=C/c3ccccc3)c2=O)=C(C(=O)OCC)C1c1ccccc1 (stereo not given)
i | 0.39 | c1cc(CN2CCCCC2)cc(OCCCNc2nc3ccccc3s2)c1
i | -0.68 | O=C(/C(=C/O)N=Nc1ccc(Cl)cc1)c1ccncc1
-7.1* | -0.76* | OCCN1CCN(CC(O)COc2ccc(C34CC5CC(CC(C5)C3)C4)cc2)CC1 (stereo not given)
i | 0.41 | CCCC(NC(=S)NCC1CCCO1)C12CC3CC(CC(C3)C1)C2 (stereo not given)
i | 1.3 | NNc1nc(Nc2ccccc2)nc(N2CCCCC2)n1
i | 3.2 | O=C1CCCC2=C1C(c1ccccc1)CC(=O)N2c1ccccc1 (stereo not given)
i | -1.1 | CC(C)Oc1cc2oc(=O)c3c(c2cc1Cl)CCC3
i | -1 | CCN(CC(=O)NC1CCCC1)S(=O)(=O)c1ccc(C)cc1
i | -0.34 | Cc1cc(C)c(-n2c(C)cc(/C=C3/NC(=O)NC3=O)c2C)c(C)c1
i | -0.01 | Cc1cc(/C=C(\C#N)C(=O)O)c(C)n1CC(C)C
-5.8* | 3.1* | O=C(CCN1CCc2ccccc2CC1)c1ccc2c(c1)OCCO2
i | -1.3 | COC(=O)C1=C(NC(=O)c2ccc(C)cc2)CCS1
i | 3 | N#Cc1ccc[n+](CC(=O)c2ccc(Cl)cc2)c1
i | 0.8 | COc1ccc(-n2c(SCc3ccc([N+](=O)[O-])cc3)nnc2-c2ccccc2)cc1
i | -0.49 | O=C(OCC(=O)N1CCCc2ccccc21)c1c(F)cccc1F
i | 0.96 | O=C(c1cccc([N+](=O)[O-])c1)N1CCCC(C(=O)N2CCCCC2)C1 (stereo not given)
i | 1.6 | Cc1ccc(C)c2[nH]c(=O)c(CN(Cc3ccc4c(c3)OCO4)Cc3nnnn3Cc3ccco3)cc12
i | 0.42 | O=C(CN1C(=O)CNC1=O)Nc1cccc(C(F)(F)F)c1
i | -0.11 | CCOC(=O)C1(CC2CCCCO2)CCN(C(=O)NCc2ccccc2)CC1 (stereo not given)
i | -2 | Cc1[nH][nH]c(=O)c1C(c1c(C)[nH][nH]c1=O)c1cn(Cc2ccccc2Cl)c2ccccc12
i | 0.02 | CCC(C)NC(=O)c1ccccc1NC(=O)Nc1ccccc1 (stereo not given)
i | -1.1 | O=C1CCC(C(=O)N2CCN(c3cnccn3)CC2)CN1CCc1cccc(F)c1 (stereo not given)
i | 0.04 | O=C(N1CCOCC1)N1CCCC(c2nc(-c3cccs3)no2)C1 (stereo not given)
i | 0.73 | COc1cc(C2C3C(C)N(C)C(=O)N(C)C3N(C)C(=O)N2C)ccc1O (stereo not given)
i | 0.79 | O=C(O)CNC(=O)C1CCCN1C(=O)CNC(=O)OCc1ccccc1 (stereo not given)
i | 0.43 | Cc1cccc(Nc2ncccc2C(=O)NCc2cccs2)c1C
i | 0.21 | CC1(C)C2CCC1(C)C1(C2)NC(=O)c2ccccc2O1 (stereo not given)
i | -0.66 | CCCCCOC(=O)Cn1c(N2CCCCCC2)nc2c1c(=O)[nH]c(=O)n2C
i | -0.03 | CC(C)c1ccc(/C=C(\c2nc3ccccc3[nH]2)S(=O)(=O)c2ccccc2)cc1
i | -1.8 | Cc1ccc2nc(SCC(=O)N(CC(C)C)c3c(N)n(Cc4ccccc4)c(=O)[nH]c3=O)[nH]c2c1
i | 1.4 | CCOC(=O)c1sc(NC(=O)CC)c(C#N)c1C
i | -1.6 | CC(C)(C)n1nc(-c2ccc(Cl)cc2)c2c(N)ncnc21
i | 0.94 | O=c1[nH]nc(C(F)(F)F)c2nnn(Cc3ccccc3Cl)c12

Part of the list above in order of molecular weight, highest first.
KCNQ2 block | KCNQ2 block baseline | Molecule
i | 1.6 | Cc1ccc(C)c2[nH]c(=O)c(CN(Cc3ccc4c(c3)OCO4)Cc3nnnn3Cc3ccco3)cc12
i | -1.8 | Cc1ccc2nc(SCC(=O)N(CC(C)C)c3c(N)n(Cc4ccccc4)c(=O)[nH]c3=O)[nH]c2c1
i | -2 | Cc1[nH][nH]c(=O)c1C(c1c(C)[nH][nH]c1=O)c1cn(Cc2ccccc2Cl)c2ccccc12
i | 0.8 | COc1ccc(-n2c(SCc3ccc([N+](=O)[O-])cc3)nnc2-c2ccccc2)cc1
i | -1.1 | O=C1CCC(C(=O)N2CCN(c3cnccn3)CC2)CN1CCc1cccc(F)c1 (stereo not given)
i | -0.03 | CC(C)c1ccc(/C=C(\c2nc3ccccc3[nH]2)S(=O)(=O)c2ccccc2)cc1
i | -0.66 | CCCCCOC(=O)Cn1c(N2CCCCCC2)nc2c1c(=O)[nH]c(=O)n2C
i | -0.11 | CCOC(=O)C1(CC2CCCCO2)CCN(C(=O)NCc2ccccc2)CC1 (stereo not given)
i | 0.79 | O=C(O)CNC(=O)C1CCCN1C(=O)CNC(=O)OCc1ccccc1 (stereo not given)
i | 0.73 | COc1cc(C2C3C(C)N(C)C(=O)N(C)C3N(C)C(=O)N2C)ccc1O (stereo not given)
i | 0.04 | O=C(N1CCOCC1)N1CCCC(c2nc(-c3cccs3)no2)C1 (stereo not given)
i | 0.96 | O=C(c1cccc([N+](=O)[O-])c1)N1CCCC(C(=O)N2CCCCC2)C1 (stereo not given)
i | 0.43 | Cc1cccc(Nc2ncccc2C(=O)NCc2cccs2)c1C
i | -1.6 | CC(C)(C)n1nc(-c2ccc(Cl)cc2)c2c(N)ncnc21
i | 0.42 | O=C(CN1C(=O)CNC1=O)Nc1cccc(C(F)(F)F)c1
i | 0.21 | CC1(C)C2CCC1(C)C1(C2)NC(=O)c2ccccc2O1 (stereo not given)
i | 1.4 | CCOC(=O)c1sc(NC(=O)CC)c(C#N)c1C

(continued)
KCNQ2 block | KCNQ2 block baseline | Molecule
i | -0.03 | CC1Cc2ccccc2N1S(=O)(=O)c1cccc(C(=O)N2CC(=O)Nc3ccccc32)c1 (stereo not given)
i | -0.07 | Cc1c(C2(O)C(=O)Nc3ccc(F)cc32)c(=O)n(-c2ccccc2)n1C (stereo not given)
i | -0.29 | C=CCOc1ccc2c(c1)c(=O)cc(C(=O)O)n2CC
i | -0.05 | CCc1nc(SCc2ccc([N+](=O)[O-])cc2)n[nH]1
i | -0.05 | Cc1nc2ccc(S(=O)(=O)NCC(=O)NCCc3ccc(Cl)cc3)cc2s1
i | 0.58 | CCCN1CCC(=O)N([C@H](CN=[N+]=[N-])CC(C)C)CC1
i | 1.6 | COc1ccccc1NS(=O)(=O)c1cccc(NC(=O)Nc2ccccc2)c1
i | 0.95 | C/C(=C\c1ccccc1)C(=O)NCCCn1ccnc1
i | -2.3 | CC(C)(C)c1cccc(P(=O)(c2ccccc2)c2ccccc2)c1O
i | -0.2 | Cc1ccc(NC(=S)N(CCN(C)C)Cc2cccs2)c(C)c1
i | -1.4 | CCOC(=O)Cc1csc(NC(=O)c2c(-c3c(F)cccc3Cl)noc2C)n1
i | 1.4 | CC(=O)c1ccc(S(=O)(=O)N2CCN(C(=O)CSC(=S)N3CCCC3)CC2)cc1
i | -0.21 | COC(=O)[C@@H]1[C@@H](C)N(Cc2ccccc2)C(=O)N[C@H]1c1cccc(C(F)(F)F)c1
i | -0.06 | Cc1ccc(C(=O)N2CCCCC2)cc1S(=O)(=O)N1CCCC1
i | -0.74 | COc1cccc(C(=O)NCCS(=O)(=O)N(C)C2CCCCC2)c1
i | 14 | CCN1CCN(Cc2c(O)ccc3c2O/C(=C\c2ccccc2)C3=O)CC1
i | 1.1 | CCOC(=O)C1C(c2ccc(Cl)cc2)NC(=S)NC1(O)C(F)(F)F (stereo not given)
i | -2 | COc1ccc2c(C)cc(SCC(=O)NCCN3C(=O)CSC3=O)nc2c1
i | 0.73 | N#Cc1ccc(CN2CCN(C(=O)c3ccccc3)CC2)c(Cl)c1
i | 0.05 | COc1ccc(-c2cc(C)no2)cc1S(=O)(=O)NCC(C)c1ccccc1 (stereo not given)
i | -0.96 | CN(C)c1ccc(S(=O)(=O)NCC(=O)OCC(=O)Nc2cccc(Cl)c2)cc1[N+](=O)[O-]
i | 0.51 | COc1cc(CN2CCCC(C(=O)c3ccc(SC)cc3)C2)cc(Cl)c1O (stereo not given)
i | 1.2 | Nc1nc2sc3c(c2c(=O)s1)CCCC3
i | -1.6 | CCC(Sc1nnc2c3ccccc3n(CC)c2n1)C(=O)Nc1sc2c(c1C#N)CCCC2 (stereo not given)
i | -0.17 | CCN(CC)c1ccc(/C=N/OCC(=O)Nc2cccc(C)c2)cc1
i | 0.57 | O=C(CSc1n[nH]c(-c2ccccc2Cl)n1)NC1CCCCC1
i | -1.3 | CCOC(=O)c1nn(-c2ccccc2)c(-c2ccccc2)c1C(=O)c1ccccc1
i | -1.3 | COc1cc(CCc2ccc3c(c2)OCO3)oc(=O)c1
i | 1.3 | Cc1nn(-c2ccccc2)c(Cl)c1C(=O)NCC(C)c1ccccc1 (stereo not given)
i | 2 | COc1cc(/C=C2\SC(=O)N(CCNC(=O)c3cnc(C)cn3)C2=O)cc(OC)c1OC
i | -0.79 | COc1ccc(N(C(=O)Cc2cccs2)C(C(=O)NC2CCCC2)c2ccncc2)cc1 (stereo not given)
i | 1.7 | O=C(Cc1noc2ccccc12)NNC(=S)Nc1ccccc1
i | -0.25 | Cc1ccc(NC(=O)/C=C2\NC(=O)CS2)cc1
i | 0.23 | CCCCn1c(=O)n(CC(=O)Nc2ccc(OC)c(Cl)c2)c(=O)c2c1nc(CO)n2CCC
i | 2 | CCOC(=O)N1CCN(C2=CC(=O)OC23CCCCC3)CC1
i | -2 | Cc1ccsc1/C=N/NC(=O)c1ccc2ccccc2c1
i | 1.2 | COCCC(=O)N1CCC(Oc2ccc(C(=O)N3CCCCCC3)cc2)CC1
i | -0.25 | CC1CCN(C(=O)CN(c2ccc3c(c2)OCO3)S(C)(=O)=O)CC1
i | -0.16 | Clc1ccc(C(c2nnnn2CCc2ccccc2)N2CCSCC2)cc1 (stereo not given)
i | 0.39 | Cc1ccsc1/C=N/NC(=S)NCCc1ccccc1
i | -0.04 | Cc1ccc(NC2=NCC(=O)N2C2CCCC2)c(C)c1
i | -0.72 | O=C1C2C(C(=O)N1/N=C/c1cc(Br)cc([N+](=O)[O-])c1O)C1C=CC2C12CC2 (stereo not given)
i | 0.8 | CCOC(=O)c1sc(=S)n(-c2ccc(Cl)cc2)c1SC
i | -0.84 | COc1cc2c(cc1OC)C(c1ccccc1)N(C(=O)CCl)CC2 (stereo not given)
i | -0.2 | Cc1cccc(C(C)C)c1NC(=O)CN1C(=O)NC2(CCc3ccccc32)C1=O (stereo not given)
i | 1 | CCN(c1ccccc1)S(=O)(=O)c1ccc2ccccc2c1
i | 0.05 | Cc1cc2ncn(C(=O)N3CCCCC3)c2cc1C
i | 0.18 | CC1(C)NC(=O)N(CC(O)COc2cccc(F)c2)C1=O (stereo not given)
i | 0.44 | CN(C)c1ccc(/C=N/N2C(=O)c3ccccc3C2=O)cc1
i | -0.03 | Cc1ccnc(SCc2cc(=O)c(OC(=O)c3ccco3)co2)n1
i | 0.53 | CCN(C(=O)CSc1nncn1-c1ccccc1)C1CCS(=O)(=O)C1 (stereo not given)
i | -0.94 | COc1ccc(N(CCCN2C(=O)c3cccc4cccc(c34)C2=O)C(=O)c2ccncc2)cc1
i | -1.4 | CC(=O)c1c(CC(=O)O)[nH]n(-c2nc3ccccc3s2)c1=O
i | 0.64 | COCC1CCN(C(=O)c2cc(COc3ccc(-n4cncn4)cc3)on2)C1 (stereo not given)
i | -0.8 | O=C(O)CCC(=O)NNC(=O)c1ccc(Br)cc1
i | -1.4 | Cc1ccc(OCC(=O)N2CCOCC2)c([N+](=O)[O-])n1
i | -1.2 | O=C(NC1CCCC1)c1cc(-c2ccc(Cl)c(Cl)c2)on1
i | -2.2 | COC(=O)c1cc(OC)c(OC)cc1NC(=O)c1cc(OC)cc(OC)c1
i | 1.8 | Cn1c(CSCc2ccccc2)nnc1SCC(=O)Nc1ccc(C(=O)O)cc1
i | -0.85 | CCC(=O)NC(=S)Nc1cccc(Cl)c1N1CCCC1

Going on with the list.
KCNQ2 block | KCNQ2 block baseline | Molecule
i | 0.36 | Oc1c(CN2CCCCC2)cc(COCc2ccccc2)c2cccnc12
i | 1.1 | C[C@H](NC(=O)[C@@H]1Cc2ccccc2CN1)C(=O)NC[C@H]1CC[C@H](C(=O)O)CC1
-10* | 0.66* | Cc1ccccc1OCC(=O)Nc1ccccc1N1CCCCC1
i | 0.02 | Cc1cccn2c(=O)c(C=O)c(N3CC(C)OC(C)C3)nc12 (stereo not given)
i | 0.67 | COc1ccc2oc(=O)c(C(=O)NCc3ccc4c(c3)OCO4)cc2c1
i | -0.34 | CCCS(=O)(=O)N1CCCC(c2nc(-c3cccc(OC)c3)no2)C1 (stereo not given)
i | 2.7 | CN(C(=S)NC(=O)c1ccc(Br)o1)c1ccccc1
i | 1.8 | O=C(NC1CCCc2ccccc21)C(Cc1ccccc1)NS(=O)(=O)c1cccs1 (stereo not given)
i | -1.1 | CC(/C=C1\N=C(SCc2ccccc2Cl)SC1=O)=C\c1ccccc1
i | -3.3 | Cn1cnc(S(=O)(=O)N2CCN(c3cccc(Cl)c3)CC2)c1
i | 0.05 | COCc1cc(C)nc(OCC(=O)N/N=C\c2cc(C)n(-c3cccc(C(F)(F)F)c3)c2C)c1C#N
i | 0.01 | O=C(N/N=C/c1ccc([N+](=O)[O-])o1)c1cn(-c2ccccc2)nc1-c1ccccc1
i | -0.03 | O=C(O)C1CC(=O)N(Cc2ccc3c(c2)OCO3)C1 (stereo not given)
i | -0.77 | CN(C)S(=O)(=O)c1ccc(NC(=O)CN2CCCCCC2)cc1

High-throughput results deposited in PubChem by Johns Hopkins Ion Channel Center.

Only part of the results is shown; count on the stated rates, not on these rows.
